ALR inh: inhibitors of human sulfhydryl oxidase ALR; purified ALR, DTT oxidation, H2O2 HRP-luminol luminescence; inhibition, % (concentration not given with the values); hit rate 3.8% among 290,000; AID 485317;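 active = mean and each replicate at 75% or more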;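 also: stock transfer was 7.5 nL into about 7.5 µL; 0% = neutral wells and 100% = wells with inactivated enzyme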
Target sequence (P55789 whole entry, looked up): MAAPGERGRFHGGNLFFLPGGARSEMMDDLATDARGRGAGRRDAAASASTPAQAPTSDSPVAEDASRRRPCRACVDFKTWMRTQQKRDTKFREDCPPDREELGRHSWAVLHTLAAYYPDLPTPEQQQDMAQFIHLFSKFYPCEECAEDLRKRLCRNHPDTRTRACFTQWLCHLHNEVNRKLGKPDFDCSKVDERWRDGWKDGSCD
UCH37 DUB inh: human UCH37 deubiquitinating enzyme inhibition; hit rate 0.33% among 330,000; purified proteasome/UCH37, Ub-AMC cleavage fluorescence; inhibition, % (concentration not given with the values); Q9Y5K5; AID 588478;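 active = mean of two replicates above 20%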;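 also: 0% = compound-free wells with enzyme and 100% = wells lacking proteasome; stock transfer was 100 nL into about 20 µL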
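Material: human UCH37 enzyme supplied as purified proteasome complex. Measure: % inhibition of Ub-AMC cleavage fluorescence. Medium: pH 7.4 Tris-HCl (50 mM) with ovalbumin, ATP-MgCl2, DTT. Times: 30 min preincubation with enzyme, 25 min cleavage at room temperature. Detection: AMC fluorescence intensity at 355/460 nm.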
HNF4A DNA FP: change in binding of human HNF4 alpha to DNA; P41235; HNF4a-FITC DNA binding, fluorescence polarization, 1 h; activity change, % at 10 µM; hit rate 0.3% among 360,000; in the data active = activity change above about 30%, passing the limit was not always enough;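 also: controls were the assay level and a saturating level of protein; the project sought stronger binding though the title names inhibitors; some compounds called inactive have numbers as strong as hits; positive values seem to mean higher polarization but the record does not say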
Target sequence (P41235 whole entry, looked up): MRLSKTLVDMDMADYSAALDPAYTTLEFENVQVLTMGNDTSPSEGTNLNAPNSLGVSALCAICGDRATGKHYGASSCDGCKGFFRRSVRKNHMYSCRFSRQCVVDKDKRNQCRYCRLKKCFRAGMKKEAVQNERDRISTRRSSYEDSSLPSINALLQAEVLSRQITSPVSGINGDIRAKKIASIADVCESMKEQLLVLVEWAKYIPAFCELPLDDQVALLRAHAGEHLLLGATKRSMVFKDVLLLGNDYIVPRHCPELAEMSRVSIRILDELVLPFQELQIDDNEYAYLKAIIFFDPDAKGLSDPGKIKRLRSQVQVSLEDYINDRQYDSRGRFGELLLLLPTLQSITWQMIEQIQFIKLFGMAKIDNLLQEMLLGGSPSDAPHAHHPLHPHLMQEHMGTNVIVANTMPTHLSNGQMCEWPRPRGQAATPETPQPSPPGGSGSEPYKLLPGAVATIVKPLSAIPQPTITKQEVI
B2AR ag: activates human beta-2 adrenergic receptor causing internalization; Am2.2-beta2AR cells, FAP receptor internalization, flow cytometry; reference of the scale not given here; response, % (test concentration not listed); hit rate 0.43% among 340,000; AID 504454;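 active = response above a set limit, near 3 SD of response in nonfluorescent compounds, cut at about 42% in these data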;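 also: stock transfer was 100 nL into about 11 µL; a reference agonist was the positive control; negative values mostly stem from fluorescent compounds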
Target sequence (P07550 whole entry, looked up): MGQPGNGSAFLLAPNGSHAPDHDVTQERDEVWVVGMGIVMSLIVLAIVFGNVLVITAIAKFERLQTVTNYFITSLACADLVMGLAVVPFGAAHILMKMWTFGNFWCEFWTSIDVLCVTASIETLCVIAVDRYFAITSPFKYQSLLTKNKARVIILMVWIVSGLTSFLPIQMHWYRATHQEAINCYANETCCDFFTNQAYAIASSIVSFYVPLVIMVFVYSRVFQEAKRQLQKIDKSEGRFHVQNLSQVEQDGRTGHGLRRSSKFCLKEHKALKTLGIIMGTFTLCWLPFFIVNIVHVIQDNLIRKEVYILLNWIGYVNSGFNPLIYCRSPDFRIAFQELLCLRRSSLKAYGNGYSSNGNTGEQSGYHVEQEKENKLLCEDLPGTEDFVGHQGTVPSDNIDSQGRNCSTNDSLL
rRNA inh HTS: selective bacterial rRNA inhibition in E. coli; GFP signal change (wild-type ribosome), % (concentration not given with the values); AID 720706; hit rate 1.6% among 350,000; E. coli WT GFP vs humanized-ribosome RFP mutants, fluorescence, 24 h; stronger effect = lower value; DMSO median 0, no signal -100;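 active = significant combined selectivity score with lowered wild-type GFP, culture density cut under 30%, mutant RFP and density less affected; inactive = any of these conditions unmet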; also: one replicate is shown; some compounds called inactive have numbers as strong as hits
Ecoli growth: inhibitors of Escherichia coli growth; hit rate 0.21% among 330,000; OD600 absorbance (test concentration not listed); OD600, 23 h; stronger effect = lower value;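 active = OD600 absorbance below the run mean of sample wells minus 3.6 SD, in any replicate, cut at about 0.56 in these data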;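 also: stock transfer was 300 nL into about 60 µL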
FGF22 binding: shifts melting point of recombinant human FGF22; Q9HCT0; recombinant FGF22 thermal shift, SYPRO orange fluorescence; percent of sucrose octasulfate shift, DMSO zero; calls only at 9.99 µM; hit rate 1.5% among 340,000;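 active = melting point raised past a set limit in the mean and every replicate; three in four hits are not shown here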
rRNA inh HTS OD600: second read-out of rRNA inh HTS, no call of its own (marks repeat the call); OD600 change, %; measured here: OD600 growth;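 optical density of the mix in the first replicate; 0 = DMSO median and -100 = no signal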
rRNA inh HTS RFP: recorded beside rRNA inh HTS, whose call it bears; RFP signal change, %; measured here: RFP humanized mutant strains;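 first replicate; 0 = DMSO median and -100 = no signal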
* marks the source's active call; other numbers are inactive results; i = inactive; . = not tested or not shown; + = active, no number; & = joins results of further samples. The list is partial, so the mix of outcomes need not match the whole.

Order of values: rRNA inh HTS OD600, rRNA inh HTS, ALR inh, Ecoli growth, HNF4A DNA FP, B2AR ag, UCH37 DUB inh, rRNA inh HTS RFP, FGF22 binding
> COC(=O)C[C@H]1C[C@@H]2c3cc(NS(=O)(=O)c4cccc(OC)c4)ccc3O[C@@H]2[C@@H](CO)O1
  -11&9, -4&-1, ., ., 6.5, ., ., -0.4&0.4, i
> O=C(Nc1ccccc1)N1CCN(CCc2ccccc2)CC1
  -1, 13, -6, 0.71, 0.5, 4, -5.0, -0.4, i
> Cc1ccc2nc(-c3cccc(S(=O)(=O)N4CCCC4)c3)cn2c1
  -2, -1, 10, ., 0.2, 1, ., -0.4, i
> CCC(=O)Nc1cccc(NC(=S)NC(=O)c2cccc(C)c2)c1
  -7.7*, -17*, -4, 0.68, 0.6, -12, 3.4, 6.8*, i
> CCc1ccc(Nc2nc3ccccc3c(=O)s2)cc1
  ., ., 3, 0.69, -2.9, -11, 1.9, ., .
> Cc1nc(C(=O)NCCO)cc2c1[nH]c1ccccc12
  0, -2, -8, 0.68, -0.3, 32, -64, 0.1, i
> CCN1CCN(c2ccc(S(=O)(=O)N3CCOCC3)cc2NC(=O)/C=C/c2ccc(C)cc2)CC1
  15, 11, ., 0.67, -1.1, 14, 4.1, -1.3, i
> Cc1cc(NC(=O)CCCC(=O)OCC(F)(F)C(F)F)cc(C)c1C(=O)O
  ., ., -7, 0.72, 3.4, 1, 3.1, ., .
> CSCCC(NC(=O)c1ccco1)C(=O)OC(C)C(=O)NC(=O)NC1CCCCC1 (stereo unspecified)
  ., ., -3, 0.73, -42, 1, 0.9, ., .
> O=C(NCCc1ccc(Cl)cc1)c1ccc(NC2=NC3CS(=O)(=O)CC3S2)cc1 (stereo unspecified)
  8, 4, -13, 0.77, 4.5, 0, 1.9, 0.8, i

Following part
Order of values: rRNA inh HTS OD600, rRNA inh HTS, ALR inh, Ecoli growth, HNF4A DNA FP, B2AR ag, UCH37 DUB inh, rRNA inh HTS RFP, FGF22 binding
> O=C1NC(=O)/C(=C\c2ccccc2OCc2cccc([N+](=O)[O-])c2)N1
  11, -1, 2, 0.7, 1.5, 8, 4.8, -6.9, i
> COc1ccc(-c2cnc(C(O)c3ccc(-c4ccccc4)cc3)[nH]2)cc1 (stereo unspecified)
  -48, -14, ., ., 3.3, ., ., 9.3, i
> Cc1cc(NC(=O)CSc2nc(N)c(NC(=O)c3ccc(F)c(F)c3)c(=O)[nH]2)no1
  21, 6, -3, 0.74, -1.5, -1, 3.1, 5.8, i
> CC1=C(O)C(=O)C(c2c(C)cc(C)c(Br)c2C)=C(O)C1=O
  -73, -54, ., ., -25, ., ., -18, i
> Cc1ccc(NC(=O)[C@H](C)NC(=O)C2CCN(C(=O)[C@@H](N)C(C)C)CC2)cc1
  5, 12, -25, 0.63, -2.4, 5, 0.9, -0.3, i
> CCN(CC)S(=O)(=O)c1ccc(OC)c(NC(=O)CSCc2c(C)noc2C)c1
  -10, -10, -3, 0.69, 5.4, -5, 2.3, 4.4, i
> CN(C)/C=C1\C(=O)NN=C1c1ccccc1
  6, 22, -8, 0.66, -0.4, 1, 1.5, 0.7, i
> CC1CCN(C(=O)COC(=O)c2cccs2)CC1
  2, 9, -4, 0.7, 1.2, 13, 3.2, 3.9, i
> Nc1cc(S(=O)(=O)N2CCOCC2)ccc1Oc1ccc(F)cc1
  -14, -18, -6, 0.69, 3.9, 1, 0.6, -2.3, i
> O=C(Cn1ncc2c3ccccc3n(Cc3cccc(Cl)c3)c2c1=O)NCC1CCCO1 (stereo unspecified)
  8, 8, ., ., 24, -10, ., 2.3, i

Going on with the list:
Order of values: rRNA inh HTS OD600, rRNA inh HTS, ALR inh, Ecoli growth, HNF4A DNA FP, B2AR ag, UCH37 DUB inh, rRNA inh HTS RFP, FGF22 binding
> CCCc1cc(-c2nc(N)ncc2-c2csc(C)n2)c(O)cc1OC
  -13, -12, 14, 0.72, -0.1, -3, 2.0, -2.8, .
> CCOc1cc(/C=N/Nc2nc3ccccc3[nH]2)cc(Br)c1OCC(=O)N(C)C
  -12, -18, 98*, ., 1.3, 10, ., 3.0, i
> COc1ccc(-c2cc(=Nc3ccc(C(=O)O)cc3)c3cc(C)ccc3o2)cc1
  -3, 6, 3, 0.65, 3.6, 6, -34, -7.4, i
> CN1CCCC(OC(=O)c2cc(Cl)ccc2Cl)C1 (stereo unspecified)
  ., ., -21, 0.7, 2.4, 4, 4.5, ., .
> CCOC(=O)N1CCN(C(=O)C2CCN(S(=O)(=O)c3ccc(Cl)cc3)CC2)CC1
  ., ., -19, 0.71, -1.0, -2, -0.4, ., .
> COC(=O)C(CCSC)NC(=O)CNC(=O)C1CCCCC1 (stereo unspecified)
  ., ., -5, 0.69, 0.8, 2, 1.0, ., .
> CCC(C)NC(=O)CCn1c(-c2ccc(F)cc2)cc(C(C)=O)c1C (stereo unspecified)
  0, 0, -4, 0.67, -2.7, 13, -0.6, -1.3, i
> Cc1cccc(NC(=O)N2C3CCCC2CC(NC(=O)C(C)(C)C)C3)c1 (stereo unspecified)
  8, 12, -9, 0.69, -1.6, -10, 0.1, -2.1, i
> COc1cc(NC(=O)c2cnc(NCc3ccccc3)nc2C)cc(OC)c1OC
  10, 1, -11, 0.71, 2.5, -1, -0.9, 2.6, i
> COc1cc(OC)cc(N(C(=O)c2ccco2)C(C(=O)NC2CCCC2)c2ccc(N(C)C)cc2)c1 (stereo unspecified)
  ., ., ., 0.78, 1.2, 8, -4.0, ., .

Following part:
Order of values: rRNA inh HTS OD600, rRNA inh HTS, ALR inh, Ecoli growth, HNF4A DNA FP, B2AR ag, UCH37 DUB inh, rRNA inh HTS RFP, FGF22 binding
> COc1ccc(NC(=O)CN(C)C(=O)c2ccc3ccccc3c2)cc1
  7, 4, ., 0.69, 1.6, -7, 4.9, -1.8, i
> Cc1ccc(Oc2nc3c(C)cccn3c(=O)c2/C=C(\C#N)C(N)=O)cc1
  15, 17, ., 0.67, 0.9, 21, -14, 7.3, i
> [O-]C(=C(C(=S)Nc1cccc2ccccc12)[n+]1cccc(CO)c1)c1ccc(Cl)s1
  -16, 7, ., 0.66, 2.3, 12, 6.2, -2.9, i
> COc1ccc(NC(=S)NC(=O)c2ccc(Br)o2)cc1
  ., ., 1, 0.68, 1.9, -3, 4.2, ., .
> CC(C)CCC(C)NC(=O)CN1C(=O)NC(C)(c2ccc3ccccc3c2)C1=O (stereo unspecified)
  -22, -14, -12, 0.69, 3.5, 5, 6.7, 11, i
> O=C(COc1ccc(Br)cc1)Nc1ccccc1N1CCCC1
  -6, -12, 0, 0.73, -0.8, 0, 28*, -1.8, i
> CCOC(=O)C1CCN(C(=O)Nc2ccc3oc(C)nc3c2)CC1
  ., ., -20, 0.63, -0.7, 2, 2.5, ., .
> Cc1cccc(C(=O)OCC(=O)NN2C(=O)NC3(CCC(C)CC3)C2=O)c1O (stereo unspecified)
  8, 1, -7, 0.66, 1.8, 1, -4.1, -1.8, i
> CCOC(=O)c1c(C)[nH]c(C)c1C(=O)CSc1nnc(N)s1
  -13, -10, 21, 0.73, 2.1, -4, 1.1, -0.1, i
> CC(=O)Nc1cc2c(cc1NC(=O)Cn1nc(-c3ccccc3F)ccc1=O)OCCO2
  ., ., -15, 0.72, 1.0, 2, 5.6, ., .

Nothing new here: two of the compounds above.
Order of values: rRNA inh HTS OD600, rRNA inh HTS, ALR inh, Ecoli growth, HNF4A DNA FP, B2AR ag, UCH37 DUB inh, rRNA inh HTS RFP, FGF22 binding
> Cc1ccc(Oc2nc3c(C)cccn3c(=O)c2/C=C(\C#N)C(N)=O)cc1
  15, 17, ., 0.67, 0.9, 21, -14, 7.3, i
> [O-]C(=C(C(=S)Nc1cccc2ccccc12)[n+]1cccc(CO)c1)c1ccc(Cl)s1
  -16, 7, ., 0.66, 2.3, 12, 6.2, -2.9, i

Continued.
Order of values: rRNA inh HTS OD600, rRNA inh HTS, ALR inh, Ecoli growth, HNF4A DNA FP, B2AR ag, UCH37 DUB inh, rRNA inh HTS RFP, FGF22 binding
> COCCNC(=O)CCn1c(=O)oc2ccccc21
  ., ., 1, 0.72, 1.8, 5, 4.2, ., .
> CCc1ccc([C@@H]2CC(=O)[C@@H]3CN(S(=O)(=O)c4ccccc4)[C@H](c4ccc(OC)cc4)C[C@@H]3N2S(=O)(=O)c2ccc(C)cc2)cc1
  10, 9, ., ., -4.0, ., ., 4.3, i
> O=C(O)c1ccc(COc2ccc(Cl)cc2)o1
  ., ., ., 0.69, -0.2, 9, -0.6, ., .
> Oc1ccccc1CN1CCCC(N2CCN(c3cccc(C(F)(F)F)c3)CC2)C1 (stereo unspecified)
  -69, -24, 14, 0.71, -2.0, 4, 3.4, -7.9, i
> Cc1ccc2nc(Cl)c(CN(Cc3cccs3)C(=O)C3CC3)cc2c1
  ., ., -7, 0.7, 3.3, 0, 1.8, ., .
> CCOc1ccc(NC(=O)CCNS(=O)(=O)c2ccc3c(c2)oc(=O)n3C)cc1
  1, -2, -5, 0.67, 6.8, -1, -1.6, 0.5, i
> CN(Cc1ccccc1)C(=O)CCn1c(=O)c2cccn2c2cccnc21
  -8, -6, -2, 0.66, 6.0, -28, -1.6, 0.5, i
> O=C(c1ccccc1NS(=O)(=O)c1ccc(F)cc1)N1CCc2ccccc21
  ., ., 3, 0.72, 0.5, 12, 1.5, ., .
> N=C1C(c2ccccc2)=C(O)CN1c1cccc(O)c1
  7, 4, 28, 0.67, 1.0, -2, -0.3, -5.8, i
> Brc1ccc(OCc2nnc(SCC3CCCCC3)o2)cc1
  4, 6, -3, 0.69, 3.1, 2, 4.2, -1.0, i

Following part:
Order of values: rRNA inh HTS OD600, rRNA inh HTS, ALR inh, Ecoli growth, HNF4A DNA FP, B2AR ag, UCH37 DUB inh, rRNA inh HTS RFP, FGF22 binding
> Cc1c(Cl)cccc1NC(=S)NC1CCN(Cc2ccccc2)CC1
  8, 20, -2, 0.72, -1.0, 6, -1.9, -4.4, i
> COc1cc(OC)c(C(=O)Nc2cc(Cl)ccc2-n2cncn2)cc1OC
  -19, -3, -11, 0.67, 5.1, 12, 0.1, 0.5, i
> O=C(NCc1cccnc1)c1ccc2sc([C@H]3C[C@H](O)[C@@H](CO)O3)nc2c1
  5, 1, ., ., -2.4, ., ., -7.3, i
> CC(CCC(=O)O)C1CCC2C3C(O)CC4CC(O)CCC4(C)C3CC(O)C12C (stereo unspecified)
  4, -2, -32, 0.68, ., 2, -5.3, -1.5, i
> O=[N+]([O-])c1ccc(N2CCN(c3ccccc3Cl)CC2)cn1
  6, 3, -2, 0.7, 2.4, -1, 4.8, 3.8, i
> COc1ccc(Cl)cc1-c1cc(C(=O)NCc2cccc(Cl)c2)[nH]n1
  -29, -16, ., ., -1.3, ., ., 2.8, i
> CN1CCN(CCCNC(=O)c2ccc(NC(=O)C3=CSCCO3)cc2)CC1
  1, 13, -4, 0.7, 0.3, -10, 2.5, 0.9, i
> COc1ccc(CN2CCNC(=O)C2CC(=O)NCCCn2nnc3ccccc32)cc1C (stereo unspecified)
  8, 14, 2, 0.64, -1.0, 8, 1.7, 2.2, i
> COc1ccc(NC(=S)NNC(=O)c2ccc(S(=O)(=O)N3CCOCC3)cc2)cc1
  -1, -1, 26, 0.68, 5.2, -4, 3.2, 2.1, +
> COc1ccc(NC(=O)Nc2ccc3nsnc3c2)cc1
  ., ., -23, 0.62, -1.5, 3, 0.3, ., .
> CCOc1ccc(CCNC(=O)c2cccc(S(=O)(=O)N3CCN(C(C)=O)CC3)c2)cc1OCC
  7, 7, -7, 0.66, 0.3, 4, 0.3, -1.4, i
